rRNA inh HTS: selective bacterial rRNA inhibition in E. coli; 350,000 compounds, 1.6% hits; AID 720706; E. coli WT GFP vs humanized-ribosome RFP mutants, fluorescence, 24 h; stronger effect = lower value; DMSO median 0, no signal -100; GFP signal change (wild-type ribosome), % (no concentration beside the values);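 active = significant combined selectivity score with lowered wild-type GFP, culture density cut under 30%, mutant RFP and density less affected; inactive = any of these conditions unmet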; note: one replicate is shown; some compounds called inactive have numbers as strong as hits
rRNA inh HTS OD600: recorded beside rRNA inh HTS, whose call it bears; OD600 change, %; measured here: OD600 growth;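 optical density of the mix in the first replicate; 0 = DMSO median and -100 = no signal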
rRNA inh HTS RFP: second read-out of rRNA inh HTS, no call of its own (marks repeat the call); RFP signal change, %; measured here: RFP humanized mutant strains;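 first replicate; 0 = DMSO median and -100 = no signal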
* = called active by the depositor; & = joins results of further samples.

#1 CC(C)NC(=O)Nc1ccc2c(c1)CC(=O)N(C)C[C@@H](C)[C@@H](CN(C)S(C)(=O)=O)O2
#2 C[C@@H]1CN([C@H](C)CO)C(=O)Cc2cc(N(C)C)ccc2O[C@@H]1CN(C)Cc1ccc2c(c1)OCO2
#3 Cc1noc(C)c1S(=O)(=O)Nc1ccc2c(c1)C(=O)N([C@@H](C)CO)C[C@H](C)[C@H](CN(C)C(=O)Nc1ccc(F)cc1)O2
#4 C/C=C/c1ccc([C@H]2[C@@H](CO)N(C(=O)NCCC)[C@@H]2CNC(=O)C2CC2)cc1
#5 CCCN1C[C@@H](C)[C@@H](OC)CN(C)C(=O)c2ccc(NC(=O)c3ccc(F)cc3)cc2OC[C@@H]1C
#6 COc1ccc(S(=O)(=O)Nc2ccc3c(c2)CC(=O)N([C@@H](C)CO)C[C@H](C)[C@H](CN(C)CC2CC2)O3)cc1

assay / entry,1,2,3,4,5,6
rRNA inh HTS,0,-3,-1,-3,0,2
rRNA inh HTS OD600,0,2,6,0,7,-1
rRNA inh HTS RFP,-0.7,-1.0,-0.3,-0.2,0.0,-0.1

#7 C[C@H]1CN([C@@H](C)CO)S(=O)(=O)c2ccc(-c3cncnc3)cc2O[C@@H]1CN(C)C(=O)C1CC1
#8 C[C@@H]1CCCCO[C@@H](CN(C)C)[C@@H](C)CN([C@H](C)CO)C(=O)c2cc(NC(=O)CCCN(C)C)ccc2O1
#9 COCC#Cc1cnc2c(c1)C(=O)N([C@@H](C)CO)C[C@H](C)[C@H](CN(C)Cc1ccc(-c3ccccc3)cc1)O2
#10 CC[C@H]1C/C=C\C[C@@H](C(C)C)NC(=O)CCC(=O)N1
#11 CCCC(=O)N1CC2(CCN(Cc3cccnc3)CC2)c2c([nH]c3cc(OC)ccc23)[C@H]1CO
#12 CC(C)NC(=O)N1C2CN(Cc3ccc(F)cc3)CC1C2c1ccc(Br)cc1 (centres undefined)

assay / entry,7,8,9,10,11,12
rRNA inh HTS,-3,3,-2,4,1,-15
rRNA inh HTS OD600,-12,6,1,11,15,-32
rRNA inh HTS RFP,-1.4,-2.0,9.8,-4.3,-3.7,4.6

#13 CC(C)NC(=O)N(C)C[C@@H]1Oc2ncc(C#CC3CCCCC3)cc2C(=O)N([C@H](C)CO)C[C@H]1C
#14 CCOC(=O)c1cc2c(c(-c3cccc(Br)c3)n1)[C@@H](CCO)N(C(=O)NC(C)C)C2
#15 COc1ccc(-c2cnc3c(c2)C(=O)N([C@H](C)CO)C[C@H](C)[C@@H](CN(C)S(=O)(=O)c2ccc(OC)cc2)O3)cc1
#16 CO[C@H]1CN(C)C(=O)c2ccc(NC(C)=O)cc2OC[C@H](C)N(Cc2cccc(F)c2)C[C@H]1C
#17 C[C@@H]1CN([C@@H](C)CO)C(=O)Cc2cc(NC(=O)CCCN(C)C)ccc2O[C@@H]1CN(C)S(=O)(=O)c1ccccc1
#18 COc1ccc(S(=O)(=O)N(C)C[C@H]2Oc3c(NC(=O)Nc4c(C)noc4C)cccc3C(=O)N([C@@H](C)CO)C[C@@H]2C)cc1

assay / entry,13,14,15,16,17,18
rRNA inh HTS,0,-5,-3,-5,4,2
rRNA inh HTS OD600,9,15,-6,-2,13,5
rRNA inh HTS RFP,-0.1,3.6,4.7,1.6,0.6,-1.1

The final 3 entries of the section before come first, to join the parts:
#16 CO[C@H]1CN(C)C(=O)c2ccc(NC(C)=O)cc2OC[C@H](C)N(Cc2cccc(F)c2)C[C@H]1C
#17 C[C@@H]1CN([C@@H](C)CO)C(=O)Cc2cc(NC(=O)CCCN(C)C)ccc2O[C@@H]1CN(C)S(=O)(=O)c1ccccc1
#18 COc1ccc(S(=O)(=O)N(C)C[C@H]2Oc3c(NC(=O)Nc4c(C)noc4C)cccc3C(=O)N([C@@H](C)CO)C[C@@H]2C)cc1
#19 C[C@@H]1CN([C@@H](C)CO)C(=O)c2cc(NS(=O)(=O)c3ccccc3)ccc2O[C@H]1CN(C)C(=O)Nc1ccc(C(F)(F)F)cc1
#20 C[C@@H]1CN([C@H](C)CO)C(=O)Cc2cc(NS(=O)(=O)c3cccs3)ccc2O[C@H]1CN(C)S(=O)(=O)c1cccs1
#21 C/C=C/c1ccc([C@@H]2[C@H](CO)N(C(C)=O)[C@H]2CN(C(=O)COC)C(C)C)cc1
#22 CC(=O)N1CC2(C1)[C@H](c1ccccc1)[C@H](CO)N2C(=O)c1ccncc1
#23 CCCNC(=O)Nc1ccc2c(c1)C(=O)N(C)C[C@@H](OC)[C@@H](C)CN(Cc1ccncc1)[C@@H](C)CO2
#24 C/C=C/c1ccc2c(c1)O[C@@H](CN(C)C(=O)C1CC1)[C@@H](C)CN([C@H](C)CO)S2(=O)=O

assay / entry,16,17,18,19,20,21,22,23,24
rRNA inh HTS,-5,4,2,-5,-2,-1,3,0,-2
rRNA inh HTS OD600,-2,13,5,-9,7,7,2,2,4
rRNA inh HTS RFP,1.6,0.6,-1.1,0.0,-2.4,2.1,-2.8,1.2,-2.5

#25 O=C1N[C@H](c2ccccc2)COCc2cnnn2CC[C@H]1Cc1ccc(C(F)(F)F)cc1
#26 CC(C)NC(=O)N1C[C@@H]2[C@H](c3ccccc31)[C@H](CO)N2Cc1ccccn1
#27 C[C@H]1CN([C@@H](C)CO)C(=O)c2cccc(NC(=O)C3CCCCC3)c2O[C@@H]1CN(C)Cc1ccc(-c2ccccc2)cc1
#28 CS(=O)(=O)N1C[C@@H]2C(c3ccccc3)[C@H](C1)N2CC(F)(F)F (some centres undefined)
#29 C[C@H](CO)N1C[C@H](C)[C@H](CN(C)C(=O)NC2CCCCC2)Oc2ncc(C#Cc3ccc(F)cc3)cc2C1=O
#30 COc1ccc2c3c(n(C)c2c1)[C@@H](CO)N(Cc1ccccc1OC)CC31CCN(CC2CC2)CC1

assay / entry,25,26,27,28,29,30
rRNA inh HTS,0,1,3,0&1,-13,2
rRNA inh HTS OD600,-6,0,16,1&3,-44,3
rRNA inh HTS RFP,-2.4,0.5,-1.8,-0.9&0.1,34,0.5

#31 CO[C@@H]1CN(C)C(=O)c2cc(NC(=O)C3CCOCC3)ccc2OC[C@H](C)N(C(=O)c2ccccc2)C[C@H]1C
#32 C[C@H]1CN([C@@H](C)CO)C(=O)c2cccc(NS(=O)(=O)c3ccc(Cl)cc3)c2O[C@H]1CN(C)S(=O)(=O)c1cn(C)cn1
#33 C[C@@H]1CN([C@@H](C)CO)C(=O)c2cccc(NC(=O)C3CCCCC3)c2O[C@H]1CN(C)S(=O)(=O)c1cn(C)cn1
#34 C/C=C/c1cnc2c(c1)C(=O)N([C@H](C)CO)C[C@@H](C)[C@H](CN(C)Cc1ccc3c(c1)OCO3)O2
#35 COc1cccc(C#Cc2ccc([C@H]3[C@@H](CO)N4C(=O)CN(C(=O)Cc5ccccc5)C[C@H]34)cc2)c1
#36 CC(=O)Nc1cccc2c1O[C@@H](CN(C)C(C)=O)[C@H](C)CN(C)C2=O

assay / entry,31,32,33,34,35,36
rRNA inh HTS,1,-3,-2,1,-33,0
rRNA inh HTS OD600,1,-1,5,2,-52,-3
rRNA inh HTS RFP,-2.6,-4.2,1.4,-1.5,-0.2,0.7

#37 CC(C)NC(=O)N1C[C@@H]2[C@H](c3ccccc31)[C@H](CO)N2C(=O)Nc1ccccc1
#38 COc1ccc2c3c([nH]c2c1)[C@@H](CO)N(C(C)=O)CC31CN(C(=O)Nc2c(C)noc2C)C1
#39 CC(C)NC(=O)NCC[C@@H]1CC[C@@H](NC(=O)CCN2CCCCC2)[C@@H](CO)O1
#40 C/C=C/c1ccc([C@H]2[C@H](CO)N(C(=O)NCCC)[C@H]2CNC(=O)C2CC2)cc1
#41 C[C@@H]1CC=CC[C@@H](c2ccccc2)NC(=O)[C@@H](C)N(C)C(=O)c2ccccc2O1 (mixture of isomers)
#42 CCOC(=O)CCCCCC(=O)Nc1ccc2c(c1)C(=O)N([C@@H](C)CO)C[C@H](C)[C@H](CN(C)S(=O)(=O)c1ccc(F)cc1)O2

assay / entry,37,38,39,40,41,42
rRNA inh HTS,0,4,1,-2,-8,-3
rRNA inh HTS OD600,6,-2,3,11,-17,-8
rRNA inh HTS RFP,-3.0,-4.8,-0.6,0.0,-0.3,2.9

#43 CC(=O)Nc1ccc2c(c1)CC(=O)N(C)C[C@H](C)[C@H](CN(C)S(C)(=O)=O)O2
#44 C[C@@H]1CN([C@H](C)CO)C(=O)c2cc(Br)cnc2O[C@H]1CN(C)C(=O)C1CCC1
#45 CO[C@@H]1CN(C)C(=O)c2ccc(NS(=O)(=O)CC(F)(F)F)cc2OC[C@@H](C)N(C(=O)NC(C)C)C[C@H]1C
#46 CO[C@H]1CN(C)C(=O)c2ccc(NC(C)=O)cc2OC[C@@H](C)N(C(=O)c2cnccn2)C[C@@H]1C
#47 CO[C@@H]1CN(C)C(=O)c2ccc(NC(=O)C3CC3)cc2OC[C@@H](C)N(Cc2cccc(F)c2)C[C@@H]1C
#48 Cc1noc(C)c1NC(=O)Nc1ccc2c(c1)C(=O)N([C@H](C)CO)C[C@H](C)[C@@H](CN(C)C)OCCCC[C@H](C)O2

assay / entry,43,44,45,46,47,48
rRNA inh HTS,1,8,-1,0,-7,9
rRNA inh HTS OD600,2,10,6,9,-29,13
rRNA inh HTS RFP,0.2,-4.4,-1.9,0.5,3.4,0.0

#49 COc1ccc(NC(=O)N(C)C[C@@H]2Oc3c(NC(=O)Nc4ccc(C(F)(F)F)cc4)cccc3C(=O)N([C@@H](C)CO)C[C@H]2C)cc1
#50 Cc1noc(C)c1NC(=O)N(C)C[C@@H]1OCc2cn(nn2)CCCC(=O)N([C@@H](C)CO)C[C@@H]1C
#51 C[C@@H]1CN([C@@H](C)CO)C(=O)c2cc(NS(C)(=O)=O)ccc2O[C@H]1CN(C)S(=O)(=O)c1ccccc1
#52 C[C@@H]1CN([C@H](C)CO)C(=O)c2cc(Br)cnc2O[C@H]1CN(C)C(=O)C1CC1
#53 CC(=O)N(C)C[C@@H]1Oc2ccc(NC(=O)NC(C)C)cc2CC(=O)N(C)C[C@H]1C
#54 CO[C@H]1CN(C)C(=O)c2cc(NC(=O)c3ccc(F)cc3)ccc2OC[C@H](C)NC[C@H]1C

assay / entry,49,50,51,52,53,54
rRNA inh HTS,-8,2,2,5,2,1
rRNA inh HTS OD600,2,8,4,13,4,-2
rRNA inh HTS RFP,0.7,0.1,-1.9,-3.8,-0.3,-1.1

#55 C[C@H](CO)N1C[C@H](C)[C@@H](CN(C)S(=O)(=O)c2ccc(F)cc2)Oc2c(NS(=O)(=O)c3cn(C)cn3)cccc2C1=O
#56 CC(=O)N1[C@H](CO)[C@@H](c2ccccc2)C12CN(C(=O)CN1CCOCC1)C2
#57 CC[C@H]1C/C=C\C[C@@H](c2ccccc2)NC(=O)CCC(=O)N1
#58 OC[C@H]1Nc2ccc(C#Cc3ccccc3)cc2[C@@H]2[C@H]1CCN2Cc1nccs1
#59 CCCC(=O)Nc1ccc2c(c1)C(=O)N(C)C[C@H](OC)[C@@H](C)CN(Cc1ccncc1)[C@@H](C)CO2
#60 CC(=O)N(C)C[C@H]1Oc2ccc(N)cc2C(=O)N(C)C[C@H]1C

assay / entry,55,56,57,58,59,60
rRNA inh HTS,1,4,6,-4,2,3
rRNA inh HTS OD600,-1,11,4,0,1,7
rRNA inh HTS RFP,-0.9,-4.0,-3.2,6.4,-1.0,-1.5

#61 CCCNC(=O)N1C[C@@H](C)[C@H](OC)CN(C)C(=O)c2cc(NC(=O)C3CCC3)ccc2OC[C@@H]1C
#62 Cc1ccccc1-c1ccc([C@H]2[C@H]3CN(C(=O)c4cccnc4)CC(=O)N3[C@H]2CO)cc1
#63 C[C@@H]1CN([C@H](C)CO)C(=O)Cc2cc(NC(=O)Nc3ccc(F)cc3)ccc2O[C@@H]1CN(C)S(=O)(=O)c1cn(C)cn1
#64 O=C1CCCCn2nncc2COC[C@H](Cc2ccccc2)N1
#65 COc1cccc(S(=O)(=O)N2CC[C@@H]3[C@@H](CO)Nc4ccc(Br)cc4[C@@H]32)c1
#66 C[C@H](CO)N1C[C@H](C)[C@H](CN(C)C(=O)[C@H](C)c2ccccc2)OCc2ccccc2-c2ccccc2C1=O

assay / entry,61,62,63,64,65,66
rRNA inh HTS,2,-1,1,3,-36,-4
rRNA inh HTS OD600,1,6,4,5,-59,-4
rRNA inh HTS RFP,-1.1,-1.0,-0.7,-0.8,0.0,-3.4

#67 C[C@H]1CN([C@@H](C)CO)C(=O)c2cc(-c3cccnc3)cnc2O[C@H]1CN(C)Cc1ccccc1
#68 COc1ccc(NC(=O)N(C)C[C@@H]2Oc3ccc(NS(=O)(=O)c4ccc(C)cc4)cc3C(=O)N([C@H](C)CO)C[C@@H]2C)cc1
#69 O=C(c1ccccc1)N1CC(=O)N2[C@H](C1)[C@H](c1ccc(/C=C/c3ccccc3)cc1)[C@@H]2CO
#70 CO[C@H]1CN(C)C(=O)c2cc(NC(=O)Nc3ccc(Cl)c(Cl)c3)ccc2OC[C@@H](C)NC[C@@H]1C
#71 CN(C)CCCNC(=O)C[C@H]1CC[C@H]2[C@@H](COc3ccc(NC(=O)CN(C)C)cc3C(=O)N2C)O1
#72 CO[C@@H]1CN(C)C(=O)c2ccc(NS(C)(=O)=O)cc2OC[C@@H](C)N(C(=O)c2ccc3c(c2)OCO3)C[C@@H]1C
#73 Cc1ccc(S(=O)(=O)Nc2ccc3c(c2)C(=O)N([C@@H](C)CO)C[C@@H](C)[C@H](CN(C)Cc2ccc(C(F)(F)F)cc2)O3)cc1
#74 CO[C@@H]1CN(C)C(=O)c2ccc(NC(=O)Nc3ccc(Cl)cc3)cc2OC[C@H](C)NC[C@@H]1C

assay / entry,67,68,69,70,71,72,73,74
rRNA inh HTS,2,1,3,-4&-62,10,0,-5,-4
rRNA inh HTS OD600,7,1,-42,-9&-81,10,-10,-9,2
rRNA inh HTS RFP,-2.7,-1.1,27,4.9&-16,1.5,-0.9,1.4,4.5

Compound activity deposited in PubChem by Broad Institute.

The list is partial; rates above refer to the full screens.
